PINK1 expr mod: PINK1 expression modulation. hit rate 0.2% among 410,000. Potency, µM (titrated, usually from 76.6 µM), for inactives: at the highest dose activation (PINK1 increase), hits mostly activators. AID 624263. PINK1 immunofluorescence, high-content cytometry, 24 h; active = well fitted activation curve with a large enough effect; inconclusive = small, poorly fitted or top-dose-only effect; inactive = flat fitted curve, though single readings scatter; cell line not stated here;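 further: % of control where 0% means no effect; nearly all actives have a fitted effect of over 65% in size; a mitochondrial uncoupler was the plate control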
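Readout is PINK1 immunofluorescence, quantified alongside mitochondrial, cell and nuclear markers by laser-scanning microplate cytometry. Cells from a stable line were exposed to compound titrations (5 concentrations) for 24 hours, with CCCP controls.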
* = called active by the depositor; ? = inconclusive. Potency means the concentration at half of the fitted maximal effect. Not all compounds are listed. The share of hits here may be higher or lower than overall.

PINK1 expr mod | Structure
0.1% | CC(=O)Nc1ccc(NC(=O)c2ccc3c(c2)N(Cc2cccc(Cl)c2)C(=O)c2ccccc2S3=O)cc1 (stereo unspecified)
1.7% | COc1ccc(-c2nc(Cn3c(SCc4ccc(C)cc4)nc4cccnc43)c(C)o2)cc1OC
-0.3% | Cc1ccc(NC(=O)CN2C(=O)COc3ccc(S(=O)(=O)Nc4ccccc4)cc32)c(C)c1
-0.7% | Cc1ccc(Cl)cc1NC(=O)N1CCC(CN2CCc3ccccc3C2)CC1
1.2% | COc1ccc(CCNC(=O)c2ccc3c(c2)N(Cc2ccc(F)cc2)C(=O)c2ccccc2S3(=O)=O)cc1OC
8.1% | CCOC(=O)c1cc2c(=O)n3ccccc3nc2n(CCCOC)c1=NC(=O)c1cc2ccccc2o1
0.7% | Cc1nc2ncnn2c(C)c1CCC(=O)NCc1ccccc1Cl
0.1% | CCOC(=O)c1c(NC(=O)COc2ccccc2)sc(C(C)=O)c1C
0.5% | Cc1ccc2cccc(NC(=O)c3ccc(-c4cccc(Cl)c4Cl)o3)c2n1
-0.6% | CCn1cc(C(=O)OCC(=O)Nc2cc(OC)cc(OC)c2)c(=O)c2ccc(C)nc21
0.2% | O=C(c1ccccc1Cl)N1CCCCC1CCN1CCOCC1 (stereo unspecified)
0.6% | CCOc1ccc(NC(=O)c2c(NCc3cccnc3)sc3c2CCC(C)C3)cc1 (stereo unspecified)
-0.2% | CCc1nnc(SCc2ccc(F)cc2Cl)c2cc3sc(C)cc3n12
0.6% | Cc1ccc(C)c(Cn2c(=O)n(CCCCCC(=O)NCc3ccc4c(c3)OCO4)c(=O)c3sccc32)c1
-1.0% | Cc1ccc(-c2nc(CS(=O)CC(=O)NCCc3ccc(Cl)cc3)c(C)o2)cc1 (stereo unspecified)
1.5% | Cc1cc(C)c(NC(=O)C(C)n2c(=O)cc(C)c3c(C)nn(-c4ccccc4)c32)c(C)c1 (stereo unspecified)
1.8% | COc1ccc(Br)cc1CNC(=O)c1cc2c(=O)n(C)c3ccccc3c2s1
1.7% | COc1ccccc1C(=O)N1CCCCC1CCN1CCOCC1 (stereo unspecified)
-0.5% | CCN(C(=O)CSc1nc2ccccc2n1CC(=O)NCc1ccc(OC)cc1)c1ccccc1
1.5% | COC(=O)c1cc2oc3ccccc3c2n1CC(=O)Nc1ccc(C)c(F)c1
-1.4% | Cc1ccc(NC(=O)c2cn(-c3ccccc3)nc2-c2ccccc2)cc1
-0.2% | COc1ccc(-n2nc3c(N4CCC(C(=O)NCCc5ccccc5)CC4)nnc(C)c3c2C)cc1
3.4% | CCc1ccccc1NC(=O)C(=O)NCCc1sc(-c2cccc(C)c2)nc1C
1.3% | CCOc1ccc(-n2c(=O)c3c4c(sc3n(Cc3cccc(Cl)c3)c2=O)CCCC4)cc1
0.7% | CC(=O)c1ccc(NC2=NS(=O)(=O)c3ccccc32)cc1
0.7% | COc1ccc(C2=NN(CC(=O)NCCc3ccccc3)C(=O)CC2)cc1
2.8% | CCc1ccc2oc(-c3ccc(NC(=O)c4ccc(OC)c(Br)c4)cc3)nc2c1
3.0% | COc1ccc(C)cc1NC(=O)c1ccc(=O)n(Cc2ccccc2)c1
0.2% | CN1C(=O)C2(SCC(=O)N2c2ccc(F)cc2)c2ccccc21 (stereo unspecified)
1.5% | O=C(CCCn1c(=O)[nH]c2ccsc2c1=O)N1CCN(c2ccc(Cl)cc2)CC1

As entered above.
PINK1 expr mod result of O=C(CCCn1c(=O)[nH]c2ccsc2c1=O)N1CCN(c2ccc(Cl)cc2)CC1 = 1.5%
PINK1 expr mod result of CC(=O)c1ccc(NC2=NS(=O)(=O)c3ccccc32)cc1 = 0.7%
PINK1 expr mod result of COc1ccc(-n2nc3c(N4CCC(C(=O)NCCc5ccccc5)CC4)nnc(C)c3c2C)cc1 = -0.2%
PINK1 expr mod result of COc1ccccc1C(=O)N1CCCCC1CCN1CCOCC1 (stereo unspecified) = 1.7%

Returning to the listing with the six entries that preceded the break.
PINK1 expr mod | Structure
0.7% | CC(=O)c1ccc(NC2=NS(=O)(=O)c3ccccc32)cc1
0.7% | COc1ccc(C2=NN(CC(=O)NCCc3ccccc3)C(=O)CC2)cc1
2.8% | CCc1ccc2oc(-c3ccc(NC(=O)c4ccc(OC)c(Br)c4)cc3)nc2c1
3.0% | COc1ccc(C)cc1NC(=O)c1ccc(=O)n(Cc2ccccc2)c1
0.2% | CN1C(=O)C2(SCC(=O)N2c2ccc(F)cc2)c2ccccc21 (stereo unspecified)
1.5% | O=C(CCCn1c(=O)[nH]c2ccsc2c1=O)N1CCN(c2ccc(Cl)cc2)CC1
-0.3% | Cc1cc(C)c2c(n1)SCC(=O)N2CC(=O)Nc1ccccc1C
0.4% | CCOC(=O)COc1cc(C)c(Cl)cc1C(=O)c1ccn2nc(-c3ccc(OC)cc3)cc2n1
0.2% | O=C(NCC(c1cccs1)S(=O)(=O)c1cccs1)c1ccccc1 (stereo unspecified)
0.8% | CCOCCCNC(=O)c1cnc2sc(N3CCCCCC3)nn2c1=O
0.4% | Cc1c(C(=O)N(Cc2ccccc2F)C2CCS(=O)(=O)C2)oc2ccc(F)cc12 (stereo unspecified)
0.8% | CCOc1ccccc1-c1noc(CSc2nnc(-c3ccccc3)n2-c2ccc(F)cc2)n1
-4.8% | CN(C)CCN(Cc1ccco1)C(=O)c1oc2ccccc2c1NC(=O)c1ccccc1
1.7% | Cc1ccc(Cc2c(C)nc3nc(SCC(=O)NC4CCC(C)CC4)nn3c2C)cc1 (stereo unspecified)
0.7% | Cc1ccccc1CNCCSc1nnnn1-c1ccccc1
-0.7% | Cc1cc(S(=O)(=O)C(CNC(=O)c2ccc(F)c(F)c2)c2cccs2)ccc1F (stereo unspecified)
1.2% | O=S(=O)(c1ccccc1)c1nnn2c1nc(NC1CCCCCC1)c1sccc12
-0.3% | CN(C)S(=O)(=O)c1ccc(C(=O)NCCSc2c(-c3ccc(Cl)cc3)[nH]c3ccccc23)cc1
0.5% | CN(C)c1ccc(/C=C/c2ccc3ncccc3c2)cc1
0.6% | Cc1cccc(N2CCN(S(=O)(=O)c3ccc(F)c(C(=O)Nc4ccc(C(C)C)cc4)c3)CC2)c1C
0.2% | COc1ccc(C)cc1NC(=O)NCCn1nnc2cc(S(=O)(=O)N(C)C)ccc21

Part of the list above in order of number of heavy atoms, rising:
PINK1 expr mod | Structure
0.4% | Cc1c(C(=O)N(Cc2ccccc2F)C2CCS(=O)(=O)C2)oc2ccc(F)cc12 (stereo unspecified)
-4.8% | CN(C)CCN(Cc1ccco1)C(=O)c1oc2ccccc2c1NC(=O)c1ccccc1
-0.3% | CN(C)S(=O)(=O)c1ccc(C(=O)NCCSc2c(-c3ccc(Cl)cc3)[nH]c3ccccc23)cc1

More compounds.
PINK1 expr mod | Structure
8.8% | O=C(NCCc1ccc(Cl)cc1)c1ccc2c(c1)N(Cc1ccc(F)cc1Cl)C(=O)CS2
0.8% | CCc1ccccc1NC(=O)CCC(=O)N1CC(C)Oc2ccc(C)cc21 (stereo unspecified)
3.6% | Cn1cc(S(=O)(=O)N2CCCCCC2)cc1C(=O)Nc1ccc(Cl)c(C(F)(F)F)c1
0.9% | O=C(CSc1ncccn1)NCC1Cc2cccc(-c3ncccn3)c2O1 (stereo unspecified)
3.8% | CC1(C)C=Cc2c(ccc(C(=O)/C=C/c3ccccc3)c2O)O1
-1.6% | Cc1cccc(C(=O)NCC(c2ccc3c(c2)OCO3)N2CCOCC2)c1 (stereo unspecified)
0.8% | CCCN1CCN(C(=O)Cn2ncc3c4ccccc4n(Cc4cccc(Cl)c4)c3c2=O)CC1
3.6% | Cc1cccc(C)c1Nc1c(-c2ccccn2)nc2ccc(Cl)cn12
0.6% | COC(=O)c1ccc(NC(=O)COc2ccccc2C(=O)Nc2ccccc2)cc1
0.7% | CCCC(C(=O)NCc1cccc(Cl)c1)N1Cc2ccccc2C1=O (stereo unspecified)
2.0% | Cc1cccc(-n2c(-c3ccco3)nc3c(cnn3-c3ccccc3C)c2=O)c1
3.1% | CCc1ccc(-c2nn(CC(=O)NC3CCCC3)c3c2cnc2ccc(F)cc23)cc1
-4.4% | COc1ccc(-n2c(SCC(=O)NCc3ccc(Cl)cc3)nc3ccsc3c2=O)cc1
0.7% | COc1ccc(N2C(=O)CSC23C(=O)N(C)c2ccccc23)cc1Cl (stereo unspecified)
-0.7% | Cc1cccc(N2CCN(C(=O)Nc3ccc(F)cc3)CC2C)c1 (stereo unspecified)
1.3% | COc1cc(NC(=O)NC(C)c2c(-n3cccc3)sc3c2CCN(C)C3)cc(OC)c1 (stereo unspecified)
0.6% | Cc1nc(-c2ccc(C)c(S(=O)(=O)N3CCC(C(=O)NCc4ccc(Cl)cc4)CC3)c2)no1
1.0% | CCN(Cc1ccccc1)C(=O)Cn1c(=O)n(-c2cccc(C)c2)c(=O)c2c1c1cc(C)ccc1n2C
7.9% | Cc1cc2c(cc1S(=O)(=O)Nc1cccc(C(F)(F)F)c1)OCCN2C
2.0% | COc1ccc(Nc2ncc3c(n2)CCN(Cc2sccc2C)C3)c(OC)c1
0.7% | Cc1cc(=O)n(Cc2ccc(Br)cc2F)c2c1c(C)nn2-c1ccccc1
2.8% | O=c1c2sc3ccccc3c2n(Cc2cccc(F)c2)c(=O)n1CCc1ccccc1
3.0% | O=C(CSc1cn(CC(=O)N2CCOCC2)c2ccccc12)Nc1ccccc1
-1.0% | COc1ccc(C2C=C(c3ccccc3)Nc3nc(NC(=O)/C=C/c4ccccc4OC)nn32)cc1 (stereo unspecified)
3.5% | CCc1nnc(NC(=O)CSc2nc3c([nH]c4ccccc43)c(=O)n2-c2ccc(Cl)cc2)s1
-0.1% | COc1ccc(-c2nc(Cn3c(SCc4ccc(F)cc4)nc4cccnc43)c(C)o2)cc1
-0.2% | O=C(Nc1ccc2nc(SCCOc3ccccc3Cl)sc2c1)c1cccs1
2.2% | CCOc1ccc(C(CC(=O)O)N2Cc3ccccc3C2=O)cc1OC (stereo unspecified)
2.8% | O=S(=O)(Nc1ccc(O)c2ncccc12)c1ccccc1F
-0.3% | CCN(CC)c1ccc(NC(=O)CN2C(=O)c3cccnc3Sc3ccccc32)c(C)c1
-1.2% | Cc1cccc(N(C)c2nc3ccc(C(=O)c4ccccc4)cc3n3c(C)nnc23)c1
2.7% | COC(=O)c1ccc(NC(=O)n2ncc3c(C)cccc32)cc1
-0.3% | Cc1ccc(-c2cn3ccc(C)cc3n2)cc1
0.0% | Cc1cc(NC(=O)CCn2c(=O)c3cccn3c3cccnc32)ccc1Br
3.2% | O=C(Nc1cc(-c2ccc(F)c(F)c2)no1)c1ccccc1F
1.1% | CN(Cc1ccccc1)C(=O)CSc1nc(-c2ccc(F)cc2)cc(C(F)(F)F)n1
? | O=C(NCCn1cc(SCc2cccc(F)c2)c2ccccc21)c1cccc(C(F)(F)F)c1
2.5% | COc1ccc(S(=O)(=O)NCCc2nnc3ccc(SCC(=O)Nc4cc(C)cc(C)c4)nn23)cc1
-0.8% | COCCNc1nc2c(S(=O)(=O)c3ccc(C)c(C)c3)nnn2c2ccc(Cl)cc12
9.4% | CSc1ccc(C2C(C(=O)Nc3ccccc3)=C(C)Nc3nc4ccccc4n32)cc1 (stereo unspecified)
1.5% | CCOC(=O)c1ccccc1NC(=O)CN(c1cc(C(F)(F)F)ccc1Cl)S(C)(=O)=O
0.8% | COc1ccc(-c2noc(N3CCC(C(=O)Nc4cccc(C)c4C)CC3)n2)cc1
-0.9% | COC(=O)c1ccccc1NC(=O)CN(c1ccc(Cl)cc1)S(=O)(=O)c1ccc(OC)cc1
-0.4% | COc1ccc(C)cc1Nc1nc(-c2cccc(Cl)c2)c2c(n1)-c1ccccc1OC2
2.5% | CCc1ccc(OC(=O)c2sc3ncn(Cc4cccc(F)c4)c(=O)c3c2C)cc1
1.2% | Cc1cc(C)cc(NC(=O)N2CCC(CN3CCc4ccccc4C3)CC2)c1
-1.7% | COc1ccccc1C1=NS(=O)(=O)N(C)C(C(=O)Nc2cc(OC)c(OC)c(OC)c2)=C1
-0.2% | COc1ccccc1N(CC(=O)Nc1ccc2c(c1)OCO2)S(=O)(=O)c1ccc(C)cc1
1.7% | Cc1ccc(CNC(=O)CCCCn2c(=O)c3ccccc3n(Cc3c(C)cc(C)cc3C)c2=O)cc1
4.1% | CCOC(=O)C(CC)Sc1ncnc2sc3c(c12)CCCC3 (stereo unspecified)
-0.2% | COC(=O)c1c(OCc2cccnc2)cc(=O)n2c1CCN(C(=O)c1c3c(nn1C)CCCC3)CC2
1.7% | CCOc1ccccc1NC(=O)Cn1c(=O)n(CCCC(=O)NCCOC)c(=O)c2cc(OC)c(OC)cc21
-1.3% | CCCCOC(=O)/C(C#N)=C\c1ccc(-c2ccc(Cl)cc2)o1
4.0% | CCOC(=O)c1ccc(N2C(=O)c3n[nH]c(-c4cccs4)c3C2c2cccc(OC)c2)cc1 (stereo unspecified)
4.1% | COc1cccc(CNS(=O)(=O)c2ccc3c(c2)C(C(C)C)C(=O)N3)c1 (stereo unspecified)
0.6% | O=C(CSc1nc(=O)[nH]c2c1CCC2)NCc1ccc(Cl)cc1
0.0% | Cc1nc(Nc2ccc(Br)cc2Br)c([N+](=O)[O-])c(=O)[nH]1
4.8% | CCc1cccc(NC(=O)c2c(C)oc3ncnc(N4CCCCC4)c23)c1
0.3% | CCOc1ccc2ncc3c(-c4ccccc4)nn(CC(=O)Nc4cccc(F)c4)c3c2c1
0.1% | COc1ccc(C(=O)N2CCC(c3nc4ccccc4o3)CC2)cc1

(continued)
PINK1 expr mod | Structure
-1.0% | COc1ccc(NC(=O)c2c(-c3ccc(C)cc3)nnc3ccccc23)cc1Cl
-1.6% | COc1ccccc1C(=O)N(c1ccc(C)cc1)S(=O)(=O)c1ccc(Cl)cc1
? | Cc1ccc(-c2nonc2NC(=O)c2ccc(F)cc2)cc1C
-0.7% | COc1ccc(C2C=C(c3ccccc3)Nc3nc(NC(=O)c4cccc([N+](=O)[O-])c4)nn32)cc1 (stereo unspecified)

Compound activity deposited in PubChem BioAssay by National Center for Advancing Translational Sciences (NCATS).
